T cruzi repl: inhibitors of intracellular T. cruzi growth, primary screen, luminescence, NIH3T3 host cells. inhibition, % (no concentration beside the values). T. cruzi beta-gal in NIH3T3, 90 h. AID 1885, 2009. hit rate 1.4% among 300,000;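 active = mean inhibition across valid replicates above about 55%, limit read from the data; inconclusive = mean below that limit but half or more replicates reach it; inactive = mean below it, under half of replicates reach it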;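 note: signal also drops with host cell toxicity which is not excluded here; 0% = plate median of DMSO wells and 100% = zero luminescence signal; higher percent means less beta-gal luminescence so fewer parasites; stock transfer was 50 nL into about 50 µL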
UCH37 DUB inh: inhibitors of human UCH37 deubiquitinase, primary screen, biochemical, Ub-AMC cleavage, fluorescence; Ubiquitin carboxyl-terminal hydrolase isozyme L5 (Homo sapiens), Q9Y5K5; purified proteasome/UCH37; inhibition, % (test concentration not listed); hit rate 0.33% among 330,000; AID 588478, 2011;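 active = mean of two replicates above 20%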;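 note: 0% = compound-free wells with enzyme and 100% = wells lacking proteasome; stock transfer was 100 nL into about 20 µL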
Target sequence (Q9Y5K5 whole entry, looked up): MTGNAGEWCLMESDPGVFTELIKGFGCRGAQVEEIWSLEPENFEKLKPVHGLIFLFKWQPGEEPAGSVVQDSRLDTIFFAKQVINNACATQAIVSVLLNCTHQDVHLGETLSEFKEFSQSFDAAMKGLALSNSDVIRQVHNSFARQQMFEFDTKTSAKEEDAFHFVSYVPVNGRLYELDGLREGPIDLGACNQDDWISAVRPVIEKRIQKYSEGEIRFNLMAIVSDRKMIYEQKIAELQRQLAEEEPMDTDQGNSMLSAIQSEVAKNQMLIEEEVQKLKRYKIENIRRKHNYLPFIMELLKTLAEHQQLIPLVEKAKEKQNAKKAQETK
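assay system = human UCH37 enzyme supplied as purified proteasome complex | amount = proteasome at 0.15 nM in the dispensed enzyme solution | schedule = 30 min compound-proteasome preincubation then 25 min substrate reaction, room temperature | measured by = fluorescence, ex 355 nm, em 460 nm | benchmarks = no-proteasome wells (full inhibition) and compound-free wells (no inhibition)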
Calb FLC: C. albicans growth inhibition with fluconazole, primary screen, CaCi-2 strain, Alamar Blue fluorescence | hit rate 0.57% among 300,000 | growth inhibition, % (test concentration not listed) | C. albicans CaCi-2 (fluconazole-resistant clinical isolate) + fluconazole, 48 h;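 active = most replicates above 75%; inconclusive = exactly half above 75%; inactive = most below 75%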;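 note: all wells also contain fluconazole at 8 µg/ml as a sub-toxic cotreatment; 0% = median of DMSO wells and 100% = median of geldanamycin control wells; wells of about 8 µL received 7.5 nL stock; the first replicate is given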
LANA-H2B inh: blockers of LANA interaction with H2A/H2B – biochemical, FP readout, HTS, primary screen. Protein LANA1 (Human herpesvirus 8 type P (isolate GK18)), Q9QR71. hit rate 0.6% among 320,000. inhibition, % (concentration not given with the values). cell-free LANA-H2A/H2B peptide, fluorescence polarization. AID 2629, 2010; in the data active = inhibition mostly above about 10%, no sharp cut-off; inactive = mostly below about 6.7%;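 note: stock transfer was 7.5 nL into about 10 µL; 0% = median of vehicle wells and 100% = median of positive control wells; one replicate is shown; the record names a cut of 25% in any replicate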
Beta2AR agonist: beta2AR agonists driving receptor internalization, primary screen, cell-based, FAP fluorogen, flow cytometry; Beta-2 adrenergic receptor (Homo sapiens), P07550; Am2.2-beta2AR cells; reference of the scale not given here; response, % (no concentration beside the values); hit rate 0.43% among 340,000;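 active = response above a set limit, near 3 SD of response in nonfluorescent compounds, cut at about 42% in these data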;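 note: stock transfer was 100 nL into about 11 µL; a reference agonist was the positive control; negative values mostly stem from fluorescent compounds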
Target sequence (P07550 whole entry, looked up): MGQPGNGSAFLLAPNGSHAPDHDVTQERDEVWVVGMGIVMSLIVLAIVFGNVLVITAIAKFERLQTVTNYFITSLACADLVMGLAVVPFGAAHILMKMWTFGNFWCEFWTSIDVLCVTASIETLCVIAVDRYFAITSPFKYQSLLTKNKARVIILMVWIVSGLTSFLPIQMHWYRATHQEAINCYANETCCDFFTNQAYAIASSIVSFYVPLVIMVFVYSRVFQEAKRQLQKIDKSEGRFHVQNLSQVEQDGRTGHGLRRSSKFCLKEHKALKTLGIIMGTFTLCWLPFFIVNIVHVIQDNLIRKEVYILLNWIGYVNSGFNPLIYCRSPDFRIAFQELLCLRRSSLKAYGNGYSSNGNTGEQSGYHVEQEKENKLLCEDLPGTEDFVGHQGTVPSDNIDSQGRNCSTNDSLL
Bfl-1 A1 inh: caspase 3/7 activation in MEF A1-2A-BIM cells, primary screen, A1 inhibitor project, cell-based, luminescence, HTS. Caspase-Glo 3/7 luminescence, 3 h; percent of clofoctol response, vehicle zero. caspase activation, % (concentration not given with the values). hit rate 0.066% among 330,000. AID 2462, 2010;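 active = over half of replicate activation scores above 10%, or exactly half above 10 with the replicate mean above 10; inconclusive = replicate mean below 10 yet half the replicates above 10; inactive = over half of replicates below 10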;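 note: wells of about 30 µL received 50 nL stock; many hits fall short of the cut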
RanGTP-Imp inh: inhibitors of RanGTP-importin-beta interaction, primary screen, biochemical, FRET, CFP-Ran, YFP-importin-beta, homogeneous; cell-free CFP-Ran/YFP-importin-beta FRET ratio; inhibition, % (concentration not given with the values); hit rate 1.1% among 300,000;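 active = most replicates above 15%; inconclusive = exactly half above 15%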;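 note: 0% = DMSO wells and 100% = Ran loaded with GDP instead of GTP; wells of about 40 µL received 100 nL stock; the first replicate is given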
Beta cell apopt: inhibitors of cytokine-induced beta cell apoptosis, primary screen, luminescence; INS-1E cytokine-induced death, ATP luminescence, 48 h; percent of positive-control rescue, neutral wells zero; protection from apoptosis, % (no concentration beside the values); hit rate 0.8% among 300,000;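 active = all replicates at 75% or more, or half of them and the mean; inconclusive = half reach 75% but not the mean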;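 note: 0% = cytokine-treated negative control wells and 100% = positive control rescue; higher means more ATP so stronger rescue from cytokine killing; wells of about 40 µL received 100 nL stock; the first replicate is given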
Starred values were filed as active, the others as inactive.

Results for CC12C(=O)N(CCC(=O)O)C(=O)C1C1C=CC2C1 (stereo not given) ?
T cruzi repl: -17.7; UCH37 DUB inh: -1.7; Calb FLC: 30.9; LANA-H2B inh: 10.8; Beta2AR agonist: 1.7; Bfl-1 A1 inh: 0.0; RanGTP-Imp inh: inconclusive; Beta cell apopt: 0.3

How did CCN(CC)C(=O)[C@]1(c2ccccc2)C[C@@H]1CN do in these assays?
T cruzi repl: -10.4; Calb FLC: -10.0; LANA-H2B inh: -4.2; Bfl-1 A1 inh: 0.1; RanGTP-Imp inh: -1.2

Results for O=C(CSc1nnnn1-c1cccnc1)Nc1ccc(F)cc1F ?
T cruzi repl: -4.5; UCH37 DUB inh: 0.7; Calb FLC: 0.7; LANA-H2B inh: -3.3; Beta2AR agonist: -14.7; Bfl-1 A1 inh: -1.0; RanGTP-Imp inh: -4.4; Beta cell apopt: 0.2

Results for Cc1ccc(S(=O)(=O)n2nc(-n3c(C)ccc3C)c3c(F)cccc32)c2ccccc12 ?
T cruzi repl: 36.7; UCH37 DUB inh: 4.2; Calb FLC: -6.3; LANA-H2B inh: 3.5; Beta2AR agonist: 3.1; Bfl-1 A1 inh: -1.0; RanGTP-Imp inh: 6.4; Beta cell apopt: -0.5

Results for COCCCNC(=O)c1c(N)n(-c2ccc(S(N)(=O)=O)cc2)c2nc3ccccc3nc12 ?
T cruzi repl: -12.1; Calb FLC: -12.9; LANA-H2B inh: 3.5; Beta2AR agonist: 1.2; Bfl-1 A1 inh: 0.5; RanGTP-Imp inh: 61.0*; Beta cell apopt: -2.8

Results for CCOc1ccc(NC(=O)CSc2nc3c(c(=O)n2C)SC(C)C3)cc1 (stereo not given) ?
UCH37 DUB inh: 6.1; LANA-H2B inh: -5.7; Beta2AR agonist: -1.1; Bfl-1 A1 inh: 0.0; Beta cell apopt: 2.5

What do the screens show for `Cc1ocnc1C(=O)Nc1ccc(Cl)cc1`?
T cruzi repl: -18.1; UCH37 DUB inh: -7.9; Calb FLC: 12.8; LANA-H2B inh: -0.6; Beta2AR agonist: -1.9; Bfl-1 A1 inh: -6.3; RanGTP-Imp inh: 9.9; Beta cell apopt: 4.2

What do the screens show for `CCc1ccc(C2C(C#N)=C(N)Oc3cc(N)ccc32)cc1` (stereo not given)?
T cruzi repl: -1.8; UCH37 DUB inh: -6.1; Calb FLC: -6.4; LANA-H2B inh: 0.9; Beta2AR agonist: 11.0; Bfl-1 A1 inh: 0.5; RanGTP-Imp inh: 95.5*

Results for O=C(CNC(=O)c1ccc(Cl)cc1Cl)OCc1cn2cc(Br)ccc2n1 ?
UCH37 DUB inh: 3.0; LANA-H2B inh: -1.3; Beta2AR agonist: -9.8; Bfl-1 A1 inh: 0.9; Beta cell apopt: -5.9

How did CCS(=O)(=O)c1ccc2c(c1)N(S(=O)(=O)c1ccc(OC)cc1)CC(C(=O)O)O2 (stereo not given) do in these assays?
T cruzi repl: -7.6; UCH37 DUB inh: 2.9; Calb FLC: -4.3; LANA-H2B inh: -1.6; Beta2AR agonist: -11.3; Bfl-1 A1 inh: -0.1; RanGTP-Imp inh: 0.8; Beta cell apopt: -7.4

Results for COC(=O)Cn1c(=O)cnc2ccccc21 ?
T cruzi repl: -8.3; UCH37 DUB inh: -35.5; Calb FLC: -2.2; LANA-H2B inh: -4.0; Beta2AR agonist: -4.4; Bfl-1 A1 inh: 0.2; RanGTP-Imp inh: 1.1; Beta cell apopt: -7.6

What do the screens show for `O=C(c1ccc(Cl)c(S(=O)(=O)NCc2ccco2)c1)N1CCN(c2ccc(F)cc2)CC1`?
T cruzi repl: -13.1; UCH37 DUB inh: 3.6; Calb FLC: 32.6; LANA-H2B inh: 1.5; Beta2AR agonist: 8.8; Bfl-1 A1 inh: -0.6; RanGTP-Imp inh: 3.6; Beta cell apopt: -8.6

How did N#Cc1c(/N=C/c2ccco2)sc2c1CCCCC2 do in these assays?
T cruzi repl: -9.2; Calb FLC: 8.6; LANA-H2B inh: -4.4; Beta2AR agonist: -9.2; Bfl-1 A1 inh: -7.3; RanGTP-Imp inh: -11.4; Beta cell apopt: 1.6

What do the screens show for `CCOc1ccccc1NC(=O)/C(C#N)=C/c1c(C)nn(-c2ccccc2)c1Cl`?
T cruzi repl: 13.3; UCH37 DUB inh: 1.7; Calb FLC: -0.9; LANA-H2B inh: 2.7; Beta2AR agonist: 11.1; Bfl-1 A1 inh: -0.3; RanGTP-Imp inh: -3.9; Beta cell apopt: 1.8

Results for Cc1nnc(SCC(=O)c2c(N)n(Cc3ccccc3)c(=O)n(C)c2=O)n1C ?
T cruzi repl: -11.9; UCH37 DUB inh: 3.6; Calb FLC: 6.4; LANA-H2B inh: -4.9; Beta2AR agonist: -4.4; Bfl-1 A1 inh: 0.8; RanGTP-Imp inh: 2.7; Beta cell apopt: -1.7

How did COc1ccc(C(=O)c2oc3ccccc3c2NC(C)=O)cc1 do in these assays?
T cruzi repl: -7.9; UCH37 DUB inh: -7.2; Calb FLC: -1.3; LANA-H2B inh: -1.2; Beta2AR agonist: -5.1; Bfl-1 A1 inh: -0.6; RanGTP-Imp inh: 0.8

How did COc1ccc(NS(=O)(=O)c2cc(C(=O)O)ccc2C)cc1 do in these assays?
T cruzi repl: -7.9; UCH37 DUB inh: 1.3; Calb FLC: -10.2; LANA-H2B inh: 4.0; Beta2AR agonist: 17.3; Bfl-1 A1 inh: -0.5; RanGTP-Imp inh: 5.1; Beta cell apopt: -9.6

How did Cc1cc(C)cc(C(=O)N2CCCCCC2)c1 do in these assays?
T cruzi repl: -11.1; UCH37 DUB inh: 3.1; Calb FLC: -10.4; LANA-H2B inh: -2.3; Beta2AR agonist: 4.3; Bfl-1 A1 inh: -1.0; RanGTP-Imp inh: -0.1; Beta cell apopt: -2.5

What do the screens show for `C[C@@H](NC(=O)[C@@H]1Cc2ccccc2CN1C(=O)OC(C)(C)C)C(=O)NC1CCCC1`?
T cruzi repl: -0.1; UCH37 DUB inh: 3.4; Calb FLC: -23.1; LANA-H2B inh: 2.0; Beta2AR agonist: 4.8; Bfl-1 A1 inh: 1.8; RanGTP-Imp inh: 3.1; Beta cell apopt: -8.7

What do the screens show for `Cc1cc(=O)[nH]c(SC/C=C/c2ccccc2)n1`?
T cruzi repl: -17.8; UCH37 DUB inh: 4.1; Calb FLC: 25.4; LANA-H2B inh: 2.2; Beta2AR agonist: 2.1; Bfl-1 A1 inh: 0.1; RanGTP-Imp inh: 2.3; Beta cell apopt: -1.3

What do the screens show for `Cn1c2ccccc2c2nnc(SCC(N)=O)nc21`?
T cruzi repl: 2.0; UCH37 DUB inh: 7.1; Calb FLC: -2.6; LANA-H2B inh: 1.1; Beta2AR agonist: 20.5; Bfl-1 A1 inh: 0.0; RanGTP-Imp inh: 1.7; Beta cell apopt: -0.5

How did COc1ccc(-n2c(=O)[nH]cc(C(=O)Nc3ccccc3)c2=O)cc1 do in these assays?
T cruzi repl: 2.1; UCH37 DUB inh: 9.8; Calb FLC: 45.9; LANA-H2B inh: -0.4; Beta2AR agonist: 1.0; Bfl-1 A1 inh: 2.0; RanGTP-Imp inh: 5.2; Beta cell apopt: -2.5

What do the screens show for `CCN(CC)Cc1oc(-c2ccccc2)cc1C(=O)O`?
T cruzi repl: -6.1; UCH37 DUB inh: 0.6; Calb FLC: 12.1; Beta2AR agonist: 0.8; Bfl-1 A1 inh: -1.0; RanGTP-Imp inh: -6.1; Beta cell apopt: -0.3

What do the screens show for `Cc1ccc(-c2csc3ncnc(N4CCN(Cc5ccccc5)CC4)c23)cc1`?
T cruzi repl: 4.3; UCH37 DUB inh: 0.5; Calb FLC: 8.4; LANA-H2B inh: -2.8; Beta2AR agonist: 3.8; Bfl-1 A1 inh: 0.3; RanGTP-Imp inh: 3.6; Beta cell apopt: -1.6

What do the screens show for `S=C(Nc1ccc(Br)cc1Cl)Nn1cnnc1`?
T cruzi repl: -13.1; UCH37 DUB inh: -2.6; Calb FLC: -6.8; LANA-H2B inh: 7.9; Beta2AR agonist: -3.4; Bfl-1 A1 inh: 0.1; RanGTP-Imp inh: 1.2; Beta cell apopt: -2.5

Results for COc1ccc(Cn2cnc([N+](=O)[O-])c2)cc1[N+](=O)[O-] ?
T cruzi repl: -1.5; UCH37 DUB inh: 1.0; Calb FLC: -0.8; LANA-H2B inh: 2.7; Beta2AR agonist: -8.1; Bfl-1 A1 inh: -0.4; RanGTP-Imp inh: 0.6

What do the screens show for `Cc1cc(C)n(-c2nc3ccccc3nc2N2CCN(S(=O)(=O)c3ccc4ccccc4c3)CC2)n1`?
T cruzi repl: 34.4; UCH37 DUB inh: -61.6; Calb FLC: 25.0; LANA-H2B inh: 6.1; Beta2AR agonist: 10.9; Bfl-1 A1 inh: 0.7; RanGTP-Imp inh: 13.5; Beta cell apopt: 6.3

What do the screens show for `COc1ccccc1C(=O)NNC(=O)CN1C(=O)c2ccccc2C1=O`?
T cruzi repl: -12.4; UCH37 DUB inh: 1.3; Calb FLC: -3.2; LANA-H2B inh: 5.0; Beta2AR agonist: 2.7; Bfl-1 A1 inh: -0.4; RanGTP-Imp inh: 0.5; Beta cell apopt: -6.3

How did CCOC(=O)CSc1cccc2cccnc12 do in these assays?
T cruzi repl: 27.1; UCH37 DUB inh: -94.7; Calb FLC: 4.8; LANA-H2B inh: 2.6; Beta2AR agonist: 11.2; Bfl-1 A1 inh: 0.1; RanGTP-Imp inh: -4.0; Beta cell apopt: 16.1

Results for NS(=O)(=O)c1ccc(CNC(=O)/C=C/c2cccc([N+](=O)[O-])c2)cc1 ?
T cruzi repl: -15.2; UCH37 DUB inh: 2.3; Calb FLC: -2.3; LANA-H2B inh: -2.1; Beta2AR agonist: 8.1; Bfl-1 A1 inh: 1.0; RanGTP-Imp inh: -4.0; Beta cell apopt: -1.6

How did CC(C)c1ccc(C2NC(=S)NC3=C2C(=O)CC(C)(C)C3)cc1 (stereo not given) do in these assays?
T cruzi repl: 13.7; UCH37 DUB inh: 3.7; Calb FLC: 23.8; LANA-H2B inh: -3.1; Beta2AR agonist: -12.2; Bfl-1 A1 inh: 0.4; RanGTP-Imp inh: 0.0; Beta cell apopt: -1.1

How did COc1n[nH]c(C(=O)Nc2nc3ccccc3s2)c1[N+](=O)[O-] do in these assays?
T cruzi repl: 2.7; UCH37 DUB inh: 6.1; Calb FLC: 51.2; LANA-H2B inh: -6.0; Beta2AR agonist: -11.5; Bfl-1 A1 inh: -7.0; RanGTP-Imp inh: 3.3; Beta cell apopt: 8.1

What do the screens show for `Cc1ccc(/C=C/C(=O)OCn2nnc3ccccc3c2=O)o1`?
T cruzi repl: -6.8; UCH37 DUB inh: 1.8; Calb FLC: -9.9; LANA-H2B inh: 2.3; Beta2AR agonist: -0.1; Bfl-1 A1 inh: -1.2; RanGTP-Imp inh: -1.9; Beta cell apopt: 1.6

High-throughput results deposited in PubChem by several laboratories.

Rows were taken by chance; any-hit rate near 4.3%.
